Bioassay records as filed in PubChem BioAssay.
D2 agonist: activates the human D2 dopamine receptor. DiscoveRx PathHunter D2 beta-arrestin, luminescence, 90 min; 100% = 57 uM dopamine signal. P14416. 0.084% of 360,000 active. activation, % (no concentration beside the values). AID 624465; in the data active = activation above about 40%; inconclusive = about 15% to 40%; inactive = below about 15%; note: compound concentration not given in the record; the text of the record calls up to 30% inactive
Target sequence (P14416 whole entry, looked up): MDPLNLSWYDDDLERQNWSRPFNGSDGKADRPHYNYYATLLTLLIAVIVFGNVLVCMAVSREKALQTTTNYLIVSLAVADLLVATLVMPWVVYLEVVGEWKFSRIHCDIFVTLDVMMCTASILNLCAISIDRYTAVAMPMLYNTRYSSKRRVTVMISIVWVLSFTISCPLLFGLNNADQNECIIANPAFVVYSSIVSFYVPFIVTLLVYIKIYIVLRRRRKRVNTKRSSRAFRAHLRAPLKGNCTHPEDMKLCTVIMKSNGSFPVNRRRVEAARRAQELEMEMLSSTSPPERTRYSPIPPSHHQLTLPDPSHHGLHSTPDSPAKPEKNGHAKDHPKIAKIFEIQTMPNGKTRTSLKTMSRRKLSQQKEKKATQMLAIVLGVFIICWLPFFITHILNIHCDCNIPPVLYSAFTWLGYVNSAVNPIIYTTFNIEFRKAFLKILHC
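Agonist mode: compounds alone added to overnight-plated D2 PathHunter cells for 90 min at 37 C, with 57 uM final dopamine (EC100) defining full response. Beta-arrestin recruitment detected by chemiluminescent reagent, read after 1 h at ambient temperature.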
PINK1 expr mod: modulators of PINK1 expression; 0.2% of 410,000 active; Potency, µM (highest dose often 76.6 µM), for inactives: at the top dose activation (PINK1 increase), most hits filed as activators; PINK1 immunofluorescence, high-content cytometry, 24 h; active = well fitted activation curve with a large enough effect; inconclusive = small, poorly fitted or top-dose-only effect; inactive = flat fitted curve, though single readings scatter; cell line not stated here;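 note: potency is the fitted concentration of half-maximal effect; % of control where 0% means no effect; nearly all actives have a fitted effect of over 65% in size; a mitochondrial uncoupler was the plate control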
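Compound titrations (5 concentrations, 24 h) on a stable cell line; DMSO and CCCP controls. Endpoint: fixed-cell PINK1 immunofluorescence with mitochondrial, cell and nuclear markers, scanned by microplate cytometer.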
D2 PAM: human D2 receptor positive allosteric modulation; DiscoveRx D2 beta-arrestin cells, luminescence, 90 min; 100% = 57 uM dopamine signal; potentiation, % (test concentration not listed); 0.23% of 360,000 active; active = potentiation of 50% or more; inconclusive = 30% to 50%; inactive = 30% or less;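 note: compound concentration not given in the record; tested on top of an EC20 dose of dopamine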
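D2 cells co-treated with compound plus 50 nM dopamine (EC20) for 90 min at 37 deg C to detect potentiation. Beta-arrestin recruitment was read as enzyme-fragment luminescence after 1 h at ambient temperature. Full response was set by 57 uM dopamine.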
TRPV1 PAM: potentiators of human vanilloid receptor 1 (TRPV1). AID 540277. Q8NER1. 0.02% of 320,000 active. potentiation, % at 8.33 µM. TRPV1-expressing cells, Fluo-8 calcium influx, capsaicin EC20 potentiation; host cell line not named in the record; control for the full effect not named in the record; active means potentiation above 80%; inconclusive means 30% to 80%; inactive means below 30%; note: 0% is about no effect
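Fluo-8 calcium influx in TRPV1-expressing cells, kinetic read (ex 480/em 520 nm). Compound added and read 3 min for agonist activity, followed by capsaicin at EC20 final and 2 min further read for enhancement.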
Sfp inh: Sfp phosphopantetheinyl transferase inhibition. Potency, µM, inactives show max response, negative = inhibition, actives largely listed as inhibitors. Q9F4F7. 3.5% of 310,000 active. Biochemical Sfp PPTase activity, qHTS; active = well fitted inhibition curve with a large enough effect; inconclusive = small, poorly fitted or top-dose-only effect, or another doubt; inactive = no such curve, though single readings can be large or run the other way;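 note: the enzyme is Sfp with the accession as filed and its product quenches rhodamine fluorescence; potency is the fitted concentration of half-maximal effect; 0% = enzyme reaction without inhibitor and -100% = no enzyme wells; top concentration of the series not given in the record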
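Fluorescence-quenching assay: 15 nM Sfp-PPTase preincubated 15 min at room temperature with compound, then 5 uM rhodamine-CoA and 12.5 uM BHQ-2-labelled YbbR peptide added. Fluorescence (ex 525/em 598 nm) read at start and after 30 min; difference gives rate.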
Six1-Eya2 inh: inhibitors of human Six1/Eya2 interaction | Q15475+O00167 | AlphaScreen GST-Six1/His-Eya2 binding, biochemical; hits give low values; control for the full effect not named in the record | activity change, % (concentration not given with the values) | 0.56% of 360,000 active | AID 651725; in the data active = activity change below about -65%; inconclusive = about -30% to -65%; inactive = above about -30%; note: % is set by controls: 0 for no effect and ±100 for the full control effect
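Six1/Eya2 binding was read as AlphaScreen signal after compounds were pinned into GST-Six1 plus His-tagged Eya2 (5X stock 250/500 nM) in pH 8.0 Tris/NaCl/TCEP buffer, beads added, then incubated 1 h, 37 C, dark.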
CtBP-E1A inh: inhibitors of CtBP/E1A interaction; AlphaScreen GST-E1A/His-CtBP binding, 1536-well; hits give low values; control for the full effect not named in the record; activity change, % (concentration not given with the values); 0.49% of 340,000 active; AID 651724; in the data active means activity change below about -65%; inconclusive means about -30% to -65%; inactive means above about -30%; note: % is set by controls: 0 for no effect and ±100 for the full control effect
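AlphaScreen with 125 nM GST-E1A and 125 nM His-CtBP (5X stocks) in Tris pH 8.0, 300 mM NaCl, BSA, Tween 20, TCEP. Compounds preincubated 2 h at 37 deg C, then glutathione donor/nickel acceptor beads added for 1 h at 37 deg C in dark.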
* hit, by the source's call; u = inconclusive; x = not tested or not shown; [ ] = remark or other dose.

Each structure is followed by: D2 agonist, PINK1 expr mod, D2 PAM, TRPV1 PAM, Sfp inh, Six1-Eya2 inh, CtBP-E1A inh
CS(=O)(=O)c1ccc(Cl)c(NC(=O)COC(=O)c2ccc(S(=O)(=O)N3CCCC3)cc2)c1
    -2.6, 6.7%, -21.8, x, x, -3.2, -0.4
CC1CCCCC12NC(=O)N(CC(=O)N1CCN(C(=O)c3cccs3)CC1)C2=O (stereo not given)
    -2.3, 3.7%, -7.7, -9.0, x, 3.7, x
COc1cccc(NC(=O)C2(C)CCCN2C(=O)C(C)C)c1 (stereo not given)
    -1.8, -0.5%, 2.2, x, x, 31.8, 27.0
O=C(Nc1cccc(-n2cnnn2)c1)c1ccc(C(F)(F)F)cc1
    -1.5, 4.1%, -15.9, -9.4, x, 2.5, x
CC(=O)N1CCC[C@H]1C(=O)O
    -2.4, 0.6%, -10.8, 7.4, 11.2%, 5.9, x
COc1ccc(N(C)S(=O)(=O)c2cccc(C(=O)NCC3CCCCC3)c2)cc1
    -0.5, 1.0%, -2.1, -11.2, 13.1%, 0.5, 4.4
C=CCn1c(SCC(=O)NC(=O)c2cccc([N+](=O)[O-])c2)nnc1-c1ccccc1
    -1.6, -1.7%, -4.9, 10.5, -2.3%, 1.4, 12.3
COC(=O)c1ccc(CSc2nnc(-c3c[nH]c4ccccc34)n2-c2ccccc2)cc1
    2.8, -0.5%, 14.2, 6.6, 8.3%, -14.5, -19.8
O=C(Nc1ccccc1)C1CCN(S(=O)(=O)c2cccs2)CC1
    0.1, -0.9%, -2.6, -17.7, x, 5.0, 9.8
COc1ccc(NC(=O)CN(c2ccc(OC)c(Cl)c2)S(=O)(=O)c2ccccc2)c(OC)c1
    1.5, 8.2%, -0.9, 5.0, 20.4%, -15.7, -0.5
CCN(CC(=O)Nc1ccc2c(c1)OCCO2)CC(=O)Nc1ccc(C)c([N+](=O)[O-])c1
    -3.6, -1.4%, -4.4, x, x, -21.0, -23.4
Nc1nonc1-n1nnc(C(=O)N/N=C/c2ccc(Cl)cc2)c1-c1ccc2c(c1)OCO2
    -0.6, 6.8%, -8.9, -3.8, 7.2%, 0.5, 0.5
C=CCNC(=O)c1ccc(C2SCC(=O)N2Cc2ccco2)cc1 (stereo not given)
    -5.6, 1.2%, -8.4, -0.3, u, -13.8, 3.4
COc1ccc(CCNC(=O)C(=O)NCC2OCCN2S(=O)(=O)c2ccc(OC)c(OC)c2)cc1OC (stereo not given)
    -3.0, 1.2%, 1.0, 0.4, 11.1%, 1.5, 2.4
Cc1cc(C(=O)CSc2nc3ccccc3o2)c(C)n1C1CC1
    -1.9, 2.9%, 13.0, 4.0, -29.5%, -8.9, -6.8

Going on with the list.
Each structure is followed by: D2 agonist, PINK1 expr mod, D2 PAM, TRPV1 PAM, Sfp inh, Six1-Eya2 inh, CtBP-E1A inh
OCC[C@@H]1C[C@H](O)[C@@H](O)[C@]2(OCCc3cc(C(F)(F)F)ccc32)O1
    -0.7, -0.8%, 0.7, x, x, -0.4, -1.2
Cn1c(=O)c([N+](=O)[O-])c(NC2CCS(=O)(=O)C2)c2ccccc21 (stereo not given)
    -0.9, 1.4%, -5.8, -5.1, -8.4%, -8.2, -7.4
COc1ccc(OC)c(NC(=O)CSc2nc3n[nH]c(C)c3c(=N)n2-c2cccc(Cl)c2C)c1
    5.9, 0.6%, -2.4, 11.2, 7.5%, -8.8, -17.0
COc1ccc(NC(=O)CN(c2ccccc2OC)S(=O)(=O)c2cccs2)cc1Cl
    -0.6, 7.9%, 11.7, x, x, -4.0, -14.4
Cc1ccc(NC(=O)c2cc([N+](=O)[O-])ccc2N2CCCC2)cc1
    -6.3, 7.3%, -13.2, u, -16.6%, -8.0, -2.3
O=C(O)CSc1nc2sc3c(c2c(=O)n1-c1ccccc1)CCC3
    -1.9, 0.2%, 2.1, u, -7.2%, 3.6, -1.1
CCOC(=O)CCC(NC(=O)CCC(=O)NC(CCC(=O)OCC)C(=O)OCC)C(=O)OCC (stereo not given)
    -1.4, -0.4%, -5.5, 6.2, 15.1%, 0.3, 0.8
Cn1c(CN2CCOCC2)nc2cc(NC(=O)c3ccccc3Cl)ccc21
    -1.3, x, -8.9, 8.3, 2.8%, -2.0, 0.8
CCN(CC(=O)Nc1ccc(NC(C)=O)cc1)C(=O)c1ccccc1SCC(=O)N1CCCC1
    2.4, 2.6%, 3.6, 6.0, x, 3.0, -0.6
O=C(/C(=C/c1ccccc1)n1cncn1)c1ccc(Cl)cc1Cl
    3.9, -1.0%, 1.0, 11.7, -11.9%, -0.1, 2.4
Cc1nc2ccc(NC(=O)CSc3ccccc3)cc2s1
    -2.9, 1.4%, -0.5, x, x, -10.2, -5.3
COc1ccc(C/C(O)=C(\C#N)c2nc3ccccc3[nH]2)cc1OC
    -1.6, 0.9%, -0.1, u, u, 1.9, -8.9
Cc1ccc(C(C(=O)NC2CCCC2)N(C(=O)CNC(=O)c2cccs2)c2cccnc2)o1 (stereo not given)
    7.5, -0.6%, -2.6, -8.5, 22.0%, -0.2, 6.7
O=C(CN1C(=O)CSc2ccc(S(=O)(=O)N3CCCCCC3)cc21)NCCc1ccccc1
    -1.8, 2.1%, -9.8, x, x, -4.5, -0.2
COC(=O)c1cccc2nc3c(C(C)O)cccc3nc12 (stereo not given)
    -8.6, -0.2%, -44.2, -10.5, u, -6.5, -12.1

(continued)
Each structure is followed by: D2 agonist, PINK1 expr mod, D2 PAM, TRPV1 PAM, Sfp inh, Six1-Eya2 inh, CtBP-E1A inh
CCN1C(=O)/C(=C/c2ccc(N3CCCC3)cc2)NC1=S
    0.8, 14.2%, -10.8, -5.2, 0.5%, u, -23.6
CC(=O)N1CCC(C(=O)Nc2ccc(S(=O)(=O)N3CCCC(C)C3)cc2)CC1 (stereo not given)
    -4.6, -1.2%, -3.6, -6.7, x, 4.5, -13.9
CCOC(=O)c1c(C)sc2c1N(C(=O)CN(CC)CC)c1ccccc1S2
    -1.2, -0.4%, 0.2, -12.8, 11.5%, -12.0, -0.1
Cc1ccc(-n2ccc(=O)c(C(=O)Nc3ccc(S(=O)(=O)Nc4onc(C)c4C)cc3)n2)cc1
    -1.5, 0.0%, -7.4, 23.0, 11.8%, -9.1, -12.8
COc1cc(OC)cc(C(=O)NCC(=O)NC(C)c2ccccc2)c1 (stereo not given)
    -0.9, -0.2%, -17.1, u, 9.8%, -2.9, -11.4
Cc1cc2ncn(C(=O)N3CCCC3)c2cc1C
    -0.9, 0.2%, 13.1, 2.7, 16.6%, 7.3, -3.7
COc1ccc(Br)cc1CN(C)C(=O)c1ccccc1SCC(=O)N1CCCC1
    0.4, 3.1%, 0.8, x, x, 4.5, -8.0
COc1cccc(Nc2ccc([N+](=O)[O-])c3nonc23)c1
    -6.7, 2.6%, -10.8, -6.1, -9.5%, -5.9, -9.8
O=C(CSc1nnc(Cc2ccccc2)o1)NCc1ccco1
    2.3, 0.6%, 6.3, -0.9, 5.9%, 7.4, 1.2
CC(C)(C)Cc1nnc(NS(=O)(=O)c2ccccc2)s1
    -2.5, -1.4%, -1.8, 27.6, -2.5%, 5.9, -4.3
CC(=O)Nc1ccc(-c2csc(NCc3ccccc3)n2)cc1
    2.2, 1.6%, -9.5, 5.1, -13.4%, -13.6, -2.3
CN(Cc1cn(-c2ccccc2)nc1-c1ccc(F)cc1)C(=O)CCC(=O)O
    0.2, 1.0%, -1.7, 4.2, 5.6%, 5.4, 0.4
CCOc1ccccc1NC(=O)c1c(Br)cnn1C
    -3.9, -0.3%, -1.3, -10.4, -12.8%, 12.1, 0.0
Cc1cc(C)n(C(=O)CN2C(=O)COc3ccccc32)n1
    -2.2, -1.9%[38.3 µM], -5.8, 6.6, -0.9%, 2.2, 5.2
O=C(COC(=O)CCc1nc2ccccc2c(=O)[nH]1)Nc1ccccc1OC(F)F
    -2.2, -0.2%, -3.7, -4.7, x, -1.4, -26.9

Next part.
Each structure is followed by: D2 agonist, PINK1 expr mod, D2 PAM, TRPV1 PAM, Sfp inh, Six1-Eya2 inh, CtBP-E1A inh
O=C(Nc1ccc(-c2cn3ccsc3n2)cc1)C1CCCC1
    -0.9, 0.6%, 2.6, -1.3, 12.8%, -20.1, -24.3
Cc1ccc2c(C(=O)CN3CCCCC3)c(C)[nH]c2c1
    5.4, -1.6%, 0.3, 5.4, 6.3%, 1.7, 5.1
CC1CCN(S(=O)(=O)c2cccc(C(=O)N(Cc3ccccc3)c3ccccn3)c2)CC1
    -5.0, 2.5%, -8.4, -2.5, 12.9%, -1.3, 3.2
O=C(O)CC1c2ccccc2S(=O)(=O)N1Cc1ccccc1 (stereo not given)
    -0.5, -1.3%, -0.4, -2.9, 16.1%, 9.7, -8.0
CSCCC(NC(=O)COc1ccccc1)C(=O)N1CCC(C(N)=O)CC1 (stereo not given)
    -3.7, 0.7%, -4.4, 8.7, x, 4.1, -0.2
Cc1nn2c(N3CCN(C4CCCC4)CC3)cc(C(C)(C)C)nc2c1-c1ccccc1
    -3.4, 8.8%[38.3 µM], -8.3, 21.9, 24.0%, 2.6, 10.4
O=C(CCS(=O)(=O)c1cccc2nonc12)NCCc1ccccc1Cl
    -5.8, -2.2%, 3.5, -4.6, u, 0.7, 2.8
